Assay outcomes (PubChem BioAssay)
Bfl-1 A1 inh – inhibitors of the anti-apoptotic protein A1, read as caspase activation. caspase activation, % (test concentration not listed). 330,000 tested, 0.066% active. MEF A1-2A-BIM cells, Caspase-Glo 3/7 luminescence, 3 h; percent of clofoctol response, vehicle zero. AID 2462;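 active means over half of replicate activation scores above 10%, or exactly half above 10 with the replicate mean above 10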;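 further: wells of about 30 µL received 50 nL stock; many hits fall short of the cut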
rRNA inh HTS – inhibitors of bacterial rRNA selective over humanized ribosomes; E. coli WT GFP vs humanized-ribosome RFP mutants, fluorescence, 24 h; active compounds read low; DMSO median 0, no signal -100; GFP signal change (wild-type ribosome), % (concentration not given with the values); 350,000 tested, 1.6% active; AID 720706;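 active means significant combined selectivity score with lowered wild-type GFP, culture density cut under 30%, mutant RFP and density less affected; inactive means any of these conditions unmet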; further: one replicate is shown; some compounds called inactive have numbers as strong as hits
T cruzi repl – blocks replication of Trypanosoma cruzi; T. cruzi beta-gal in NIH3T3, luminescence, 90 h; inhibition, % (no concentration beside the values); 300,000 tested, 1.4% active; AID 1885;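 active means mean inhibition across valid replicates above about 55%, limit read from the data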;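 further: signal also drops with host cell toxicity which is not excluded here; 0% = plate median of DMSO wells and 100% = zero luminescence signal; higher percent means less beta-gal luminescence so fewer parasites; stock transfer was 50 nL into about 50 µL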
Beta cell apopt – beta cell apoptosis inhibition | INS-1E cytokine-induced death, ATP luminescence, 48 h; percent of positive-control rescue, neutral wells zero | protection from apoptosis, % (concentration not given with the values) | 300,000 tested, 0.8% active;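 active means all replicates at 75% or more, or half of them and the mean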;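 further: 0% = cytokine-treated negative control wells and 100% = positive control rescue; higher means more ATP so stronger rescue from cytokine killing; wells of about 40 µL received 100 nL stock; the first replicate is given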
UCH37 DUB inh – human UCH37 deubiquitinating enzyme inhibition | purified proteasome/UCH37, Ub-AMC cleavage fluorescence | Q9Y5K5 | 330,000 tested, 0.33% active | inhibition, % (no concentration beside the values) | AID 588478;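 active means mean of two replicates above 20%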;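 further: 0% = compound-free wells with enzyme and 100% = wells lacking proteasome; stock transfer was 100 nL into about 20 µL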
Target sequence (Q9Y5K5 whole entry, looked up): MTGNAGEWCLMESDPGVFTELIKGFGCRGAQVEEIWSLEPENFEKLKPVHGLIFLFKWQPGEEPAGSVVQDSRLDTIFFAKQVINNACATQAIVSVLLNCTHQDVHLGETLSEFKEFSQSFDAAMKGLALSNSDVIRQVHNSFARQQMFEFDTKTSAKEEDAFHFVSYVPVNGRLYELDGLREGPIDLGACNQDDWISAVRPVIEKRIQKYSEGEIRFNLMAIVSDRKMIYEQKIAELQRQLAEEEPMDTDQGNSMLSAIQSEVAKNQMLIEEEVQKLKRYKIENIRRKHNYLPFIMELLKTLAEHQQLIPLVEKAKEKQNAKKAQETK
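System: Proteasome-associated human UCH37 deubiquitinase; Input: 0.15 nM proteasome in added enzyme buffer; Also added: Ub-AMC substrate from 1 µM stock; Incubation: 30 min compound-proteasome preincubation then 25 min substrate reaction, room temperature; Detection: fluorescence, ex 355 nm, em 460 nm; Read-out: % inhibition of Ub-AMC cleavage fluorescence; Benchmarks: no-proteasome and no-compound wells.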
MLL AF4-AF9 inh – MLL-AF4/AF9 protein interaction inhibition. P42568. AlphaScreen, biotin-AF4 peptide binding to FLAG-AF9. inhibition, % at 10 µM. 350,000 tested, 0.47% active;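 active means every replicate reaching a set inhibition limit, whatever the replicate mean, cut at about 25% in these data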;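 further: 0% = plate neutral control median and 100% = total signal loss; the record names both 10 and 1 µM as test concentration; the first replicate is given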
Target sequence (P42568 whole entry, looked up): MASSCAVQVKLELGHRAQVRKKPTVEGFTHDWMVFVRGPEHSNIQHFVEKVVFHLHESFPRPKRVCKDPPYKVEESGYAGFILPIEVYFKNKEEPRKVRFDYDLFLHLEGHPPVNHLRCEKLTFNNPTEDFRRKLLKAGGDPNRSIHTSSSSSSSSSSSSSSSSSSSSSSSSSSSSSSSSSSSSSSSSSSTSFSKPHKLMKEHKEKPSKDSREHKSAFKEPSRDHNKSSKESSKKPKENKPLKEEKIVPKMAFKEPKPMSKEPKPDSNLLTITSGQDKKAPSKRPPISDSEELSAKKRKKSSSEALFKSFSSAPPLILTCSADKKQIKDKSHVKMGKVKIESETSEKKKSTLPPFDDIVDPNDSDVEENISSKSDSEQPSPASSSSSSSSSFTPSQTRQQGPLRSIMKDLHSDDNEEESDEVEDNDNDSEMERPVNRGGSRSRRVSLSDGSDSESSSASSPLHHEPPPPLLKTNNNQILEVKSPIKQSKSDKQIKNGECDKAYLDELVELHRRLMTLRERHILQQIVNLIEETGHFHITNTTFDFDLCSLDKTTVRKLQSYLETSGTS
FGF22 binding – shifts melting point of recombinant human FGF22 | recombinant FGF22 thermal shift, SYPRO orange fluorescence; percent of sucrose octasulfate shift, DMSO zero | Q9HCT0 | AID 651658 | 340,000 tested, 1.5% active | calls only at 9.99 µM;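 active means melting point raised past a set limit in the mean and every replicate; three in four hits are not shown here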
Ecoli growth – E. coli growth inhibition. Escherichia coli growth, OD600, 23 h; active compounds read low. OD600 absorbance (no concentration beside the values). 330,000 tested, 0.21% active. AID 1053175;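 active means OD600 absorbance below the run mean of sample wells minus 3.6 SD, in any replicate, cut at about 0.56 in these data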;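 further: stock transfer was 300 nL into about 60 µL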
rRNA inh HTS OD600 – further read-out of rRNA inh HTS, marked with its call; OD600 change, %; measured here: OD600 growth;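 optical density of the mix in the first replicate; 0 = DMSO median and -100 = no signal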
rRNA inh HTS RFP – also measured in rRNA inh HTS; calls as there; RFP signal change, %; measured here: RFP humanized mutant strains;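 first replicate; 0 = DMSO median and -100 = no signal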
* marks the source's active call; other numbers are inactive results; i = inactive; x = no result given.

SMILES	Bfl-1 A1 inh	rRNA inh HTS	rRNA inh HTS OD600	rRNA inh HTS RFP	T cruzi repl	Beta cell apopt	UCH37 DUB inh	MLL AF4-AF9 inh	FGF22 binding	Ecoli growth
CCCN(C1CCS(=O)(=O)C1)S(=O)(=O)c1ccc2ccccc2c1 (centres undefined)	-0.3	-2	-14	4.2	x	-8	-0.6	-2.6	i	0.69
O=C(O)CC1(CC(=O)NCc2ccncc2)CCCCC1	0.8	16	1	-1.5	-11	1	0.7	-2.3	i	0.64
FC(F)(F)c1ccc2c(c1)[nH]c(=S)n2C1CC1	0.2	2	-9	-3.4	-4	-6	0.0	0.0	i	0.71
CC(C)(C)OC(=O)N1CCC(CC2CC(c3ccc(Cl)cc3)=NO2)(C(=O)NCC2CCCCC2)CC1 (centres undefined)	2.3	1	-8	4.1	48	26	2.4	-1.5	i	0.66
NC(=O)COc1ncnc2scc(-c3ccc(F)cc3)c12	0.4	x	x	x	-16	-8	5.2	-1.5	i	0.72
CC(C)(C)n1ncc2c(=O)n(CC(=O)N3CCCCC3)cnc21	-0.1	8	-6	-1.9	-2	-6	4.4	-2.1	i	0.68
Cc1ccc(S(=O)(=O)N(CC(=O)Nc2cccc([N+](=O)[O-])c2)C2CCCCC2)cc1	0.6	x	x	x	-4	17	0.0	x	x	0.79
Cc1ccc(C(=O)c2cnc3cc4c(cc3c2S(=O)(=O)c2ccccc2)OCCO4)cc1	1.1	x	x	x	22	x	-31	7.0	i	0.73
O=C1CC(SCc2nc3ccccc3[nH]2)C(=O)N1c1cccc(Cl)c1 (centres undefined)	-0.5	-8	-9	4.1	-29	7	-3.5	x	x	0.72
COc1ccc(S(=O)(=O)NC(C)C(=O)Nc2ccccc2F)cc1 (centres undefined)	0.8	x	x	x	-2	-4	3.4	x	x	0.68
Oc1oc(-c2ccccc2)nc1C=NCc1ccccc1	-0.7	x	x	x	14	-9	6.4	x	x	0.67
Cc1ccc(S(=O)(=O)c2cccc(S(=O)(=O)N3CCCC3)c2)cc1S(=O)(=O)N1CCCC1	0.2	x	x	x	16	40	0.7	x	x	0.69
CCOCCn1c(SCC)nc2c1c(=O)[nH]c(=O)n2C	1.8	x	x	x	3	-2	0.8	x	x	0.74
O=C(Nc1ccc(NC(=O)c2cccs2)cc1)c1cccnc1	-0.3	7	8	1.0	0	7	-3.1	-1.6	i	0.6
CC(C)c1cc(C(=O)N2CCCC(N3CCN(c4ccccc4F)CC3)C2)nc(N)n1 (centres undefined)	1.3	-6	-13	-1.1	10	x	-7.3	8.7	i	0.66

Record cards, as listed above. Values in the order: Bfl-1 A1 inh	rRNA inh HTS	rRNA inh HTS OD600	rRNA inh HTS RFP	T cruzi repl	Beta cell apopt	UCH37 DUB inh	MLL AF4-AF9 inh	FGF22 binding	Ecoli growth
`O=C(Nc1ccc(NC(=O)c2cccs2)cc1)c1cccnc1` is entered as -0.3	7	8	1.0	0	7	-3.1	-1.6	i	0.6
`NC(=O)COc1ncnc2scc(-c3ccc(F)cc3)c12` is entered as 0.4	x	x	x	-16	-8	5.2	-1.5	i	0.72
`Cc1ccc(C(=O)c2cnc3cc4c(cc3c2S(=O)(=O)c2ccccc2)OCCO4)cc1` is entered as 1.1	x	x	x	22	x	-31	7.0	i	0.73
`Cc1ccc(S(=O)(=O)N(CC(=O)Nc2cccc([N+](=O)[O-])c2)C2CCCCC2)cc1` is entered as 0.6	x	x	x	-4	17	0.0	x	x	0.79

Remaining list, next part
SMILES	Bfl-1 A1 inh	rRNA inh HTS	rRNA inh HTS OD600	rRNA inh HTS RFP	T cruzi repl	Beta cell apopt	UCH37 DUB inh	MLL AF4-AF9 inh	FGF22 binding	Ecoli growth
Nc1nc(-c2ccc(Cl)cc2)nc(-c2ccc(Cl)cc2)n1	-0.9	9	6	-1.9	-2	-4	3.0	7.1	i	0.71
COc1ccccc1OCCNC(=O)c1ccccc1OCc1c(C)noc1C	1.2	x	x	x	x	-9	3.3	-0.8	i	0.67
Cc1cc(C)c(OCC(=O)NCCCn2nc(C)cc2C)c(C)c1	0.4	-1	0	0.6	x	-6	6.1	-0.9	i	0.69
CC1(c2cc(F)ccc2F)NC(=O)N(CC(=O)Nc2cccc(S(=O)(=O)N3CCCC3)c2)C1=O (centres undefined)	0.4	x	x	x	x	-1	0.7	1.9	i	0.71
O=C(Oc1ccc(N(C(=O)c2ccncc2)S(=O)(=O)c2ccc(Cl)cc2)cc1)c1ccncc1	0.2	-17	-27	2.3	-6	-5	3.0	-0.6	x	0.67
CCOc1ccc(OCc2ccc(C(=O)NC(C)(C)C)o2)cc1	-0.4	6	4	2.5	6	4	1.8	1.7	i	0.6
Cc1sc(NC(=O)c2oc3ccccc3c2C)c(C#N)c1C	0.9	7	-4	-4.2	-10	-7	-115	8.2	i	0.75
Cc1ccc(Cl)c2c1NC(=O)C2(O)CC(=O)c1ccccc1O (centres undefined)	0.5	x	x	x	-6	-16	0.7	x	x	0.72
Cc1cc(C)n(-c2nc(SCCN3CCOCC3)c3c4c(sc3n2)CCCC4)n1	x	-56	-80	-28	x	x	-2.2	7.0	i	0.7
Cn1nc([N+](=O)[O-])nc1Oc1ccccc1F	0.2	15	11	0.0	74*	-1	1.0	-2.3	i	0.71
CN(C(=O)NC1CCCCC1)c1ccccc1	-0.2	15	3	-2.1	7	-5	0.0	-0.9	x	0.68
NS(=O)(=O)c1ccc(CCNC(=O)Cc2ccccc2[N+](=O)[O-])cc1	x	10	10	2.6	-10	x	2.0	-0.4	i	0.65
COc1ccccc1-c1coc2cc(O)cc(O)c2c1=O	-0.3	x	x	x	-4	-5	48*	x	x	0.67
C=CCN(C(=O)c1ccc2snnc2c1)c1ccccc1	-0.2	-1	-1	0.7	1	-3	1.1	1.3	i	0.66
COCCn1c(SCC(N)=O)nnc1-c1c[nH]c2ccccc12	-0.5	7	21	-2.6	6	-2	1.7	-0.2	i	0.71

By substructure: those above containing a furan ring, fused or not
SMILES	Bfl-1 A1 inh	rRNA inh HTS	rRNA inh HTS OD600	rRNA inh HTS RFP	T cruzi repl	Beta cell apopt	UCH37 DUB inh	MLL AF4-AF9 inh	FGF22 binding	Ecoli growth
CCOc1ccc(OCc2ccc(C(=O)NC(C)(C)C)o2)cc1	-0.4	6	4	2.5	6	4	1.8	1.7	i	0.6
Cc1sc(NC(=O)c2oc3ccccc3c2C)c(C#N)c1C	0.9	7	-4	-4.2	-10	-7	-115	8.2	i	0.75

Additional compounds:
SMILES	Bfl-1 A1 inh	rRNA inh HTS	rRNA inh HTS OD600	rRNA inh HTS RFP	T cruzi repl	Beta cell apopt	UCH37 DUB inh	MLL AF4-AF9 inh	FGF22 binding	Ecoli growth
Cc1ccc(C)c(NC(=S)NNc2ccc(F)cc2F)c1	0.9	-3	1	-6.0	32	x	3.3	14	i	0.64
CCc1ccc(C(=O)NCc2ccc(Cl)cc2Cl)cc1	-1.1	x	x	x	4	-7	1.6	x	x	0.65
NC1=NC[C@H](c2ccccc2)N1CCc1cc(C(F)(F)F)cc(C(F)(F)F)c1	0.8	-55	-77	-33	40	36	-0.9	6.6	i	x
O=C(CCn1cnnn1)Nc1ccc(F)cc1	0.4	2	1	-1.4	-8	-2	2.0	0.7	i	0.72
CCCCN1CCCC1CNC(=O)c1cc(C#N)c2ccccc2c1OC (centres undefined)	-0.1	x	x	x	31	x	0.8	x	x	0.68
Cc1cc(C)n2c(SCCN3C(=O)c4ccccc4C3=O)nnc2n1	0.6	3	6	1.5	-10	2	2.7	-3.7	i	0.77
COc1cc(OC)c2ccc(=O)oc2c1	x	6	5	1.1	x	x	i	-1.7	i	0.71
Cc1cc(NC(=O)CSc2nnc(NC(=O)C3CC(=O)N(c4ccccc4)C3)s2)no1 (centres undefined)	-0.3	23	15	5.5	3	-4	3.9	5.1	i	0.65
CCC(Oc1cc(Cl)ccc1Cl)C(=O)NNC(=O)CCC(=O)O (centres undefined)	1.4	x	x	x	-16	x	4.0	x	x	0.72
C#CCOCCOCCOCCNc1nc(N2CCN(C(=O)[C@H](CCC(=O)O)n3cc(C(N)[C@H](C)CC)nn3)CC2)nc(N2CCN(C(=O)[C@H](CCC(=O)O)n3cc(C(N)[C@H](C)CC)nn3)CC2)n1 (some centres undefined)	-0.5	19	17	-5.4	-8	-10	3.4	1.7	i	x
CS/C(N)=N/N=C/c1ccc2c(c1)OCO2	-5.1	6	1	-4.7	1	-8	x	3.0	i	x
CCOC(=O)Cc1csc(NC(=O)CN2CCCCC2)n1	-0.1	7	11	-0.7	6	-8	5.9	-0.6	i	0.59
Cc1ccc(-c2nn(C)c(=O)c3ccccc23)cc1S(=O)(=O)N1CCCC1	-0.4	-12	-26	2.8	6	3	7.1	-3.9	i	0.71
CCOC(=O)c1c(-c2cccs2)csc1NC(=O)CN(CC)CC	0.2	x	x	x	40	11	2.3	x	x	0.69
CCOC(=O)CNc1nc(C(C)(C)C)nc2c1nnn2Cc1ccccc1	-0.3	3	2	-2.5	19	6	1.9	-1.7	i	0.63
CC(C)CC(C)c1cc(N)nc2nc3ccccc3n12 (centres undefined)	0.2	x	x	x	-11	3	-26	x	x	0.68
CCN(CC)c1ccc(NC(=O)COC(=O)C2CCN(c3ccc(C(F)(F)F)cn3)CC2)cc1	x	7	15	-2.7	x	x	-0.9	-15	i	0.7
CN(C)C(=O)Nc1cnc2ccccc2c1	0.6	x	x	x	2	-1	3.1	x	x	0.71
CCCCCOc1ccc(C2C(C(C)=O)=C(C)Nc3ncnn32)cc1OC (centres undefined)	0.6	x	x	x	-1	-14	3.1	x	x	0.76
O=C(Cc1ccccc1)Nc1ccc(-c2nnc(-c3ccco3)o2)cc1	-0.4	x	x	x	-21	2	-6.9	x	x	0.76
COC(=O)[C@@H]1C[C@H]2CC[C@H](O)C[C@H]2N1Cc1ccc(C(F)(F)F)cc1	0.3	4	6	-2.4	-26	6	5.3	0.5	i	x

Some of the compounds tested (hit frequency here may not be typical).
